Source: PubChem (Fisher Drug Discovery Resource Center)
NPYLR7 agonist: activates Aedes aegypti NPYLR7 receptor; 270,000 tested, 0.15% active; HEK293T NPYLR7/Galpha15, GCaMP6s calcium fluorescence; activation, % at 10 µM; in the data active means activation above about 40%;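 further: 0% = vehicle and 100% = reference agonist at the receptor; some compounds past the cut are filed as inactive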
NPYLR7 agonist max-min: also measured in NPYLR7 agonist; calls as there; activation, %; measured here: Max-Min RFU normalised activation; some inactives read as strong as hits;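 span of the calcium signal over five minutes; 0% = vehicle and 100% = native peptide agonist; compound fluorescence can raise it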
Numbers without * were called inactive; & = joins results of further samples. A portion of the library. The share of hits here may be higher or lower than overall.

cpd	Structure	NPYLR7 agonist	NPYLR7 agonist max-min
1	COc1cc(OC)nc(C(NC(=O)C2CCN(Cc3cccnc3)CC2)c2ccc(Cl)cc2)n1 (stereo not given)	-1	-1
2	NC1(C(=O)O)CCN(Cc2cccc(Cn3cccn3)c2)C1 (stereo not given)	2	-3
3	CN(C)c1ncnc2c1CCN(C(=O)c1cnc(Nc3ccccc3)nc1)C2	2	-2
4	COCCNc1oc2c(c1-c1ccc([N+](=O)[O-])cc1)c(=O)oc1ccc(C)cc12	-7	-9
5	CC(C(=O)N1CCOCC1)S(=O)(=O)c1ncc(-c2ccccc2)[nH]1 (stereo not given)	9	6
6	O[C@H]1COC[C@@H]1N1CCCN(Cc2cc3n(n2)CCNC3)CC1	6	3
7	CCC1CN(C(=O)CCOc2ccccc2C)CCN1 (stereo not given)	-10	-15
8	Nc1ccc(/C=C/c2nc3ccccc3o2)cc1	2	1
9	CC(CC(=O)O)c1ccncc1 (stereo not given)	0	9
10	CCN(CC)S(=O)(=O)c1cc(C(=O)Nc2ccccc2C(=O)O)ccc1OC	-4	-12

From compound 8 to 10, copied from above:
cpd	Structure	NPYLR7 agonist	NPYLR7 agonist max-min
8	Nc1ccc(/C=C/c2nc3ccccc3o2)cc1	2	1
9	CC(CC(=O)O)c1ccncc1 (stereo not given)	0	9
10	CCN(CC)S(=O)(=O)c1cc(C(=O)Nc2ccccc2C(=O)O)ccc1OC	-4	-12

(more compounds)
cpd	Structure	NPYLR7 agonist	NPYLR7 agonist max-min
11	CCNC(=O)CN(CC)C(=O)Cc1cc(Cl)ccc1Cl	2	2
12	Cn1nc(-c2ccccc2)c2c1NC(=O)CC2c1ccc(-n2cncn2)cc1 (stereo not given)	-4	-6
13	Cc1ccc(C(=O)NCC(=O)OCc2cc(=O)oc3cc(C)c(C)cc23)cc1C	13	9
14	CC(OC(=O)c1ccc[nH]1)C(=O)Nc1cc(F)ccc1F (stereo not given)	17	8
15	CCCCc1ccc(-c2csc(NC(=O)OC)c2C(N)=O)cc1	-12	-17
16	COCc1nnc(NC(=O)CN2CCC(N3CCCC3=O)CC2)s1	6	2
17	CCc1nnc(N/N=C\c2ccc(OCc3ccc(F)cc3Cl)c(OC)c2)n1N	-13	-18
18	Cc1c(C(=O)NC(C)C)c(C(F)(F)F)nn1C1CCCN(C)C1 (stereo not given)	9	0
19	CCCCCCCC(=O)Oc1ccc(C(=O)Nc2nncs2)cc1	-3	-9
20	COc1ccc(CN2C3CCC2CC(NC(=O)c2cccc4ccccc24)C3)c(OC)c1 (stereo not given)	4	3
21	CCOc1cccc2sc(NC(C)=O)nc12	27	21
22	CC(NC(=O)c1cn(Cc2ccccc2Cl)nn1)c1ccc2[nH]ccc2c1 (stereo not given)	13	7
23	O=[N+]([O-])c1ccc(S(=O)(=O)Nc2ccc(I)cc2)cc1	-4	-5
24	CCc1nc2ccc(C(=O)Nc3ccc(OC)c(OC)c3)cn2c1N(C)CCC(C)C	-5	-9
25	O=C1CSC(c2ccccn2)N1c1ccccc1F (stereo not given)	-2	-9
26	Cc1ncc([N+](=O)[O-])n1Cc1nc(N)nc(N(C)C)n1	0	0
27	O=S(=O)(/C=C/c1ccc(Cl)cc1)Oc1ccc(F)c(F)c1	7	1
28	Cc1noc(-c2ccc(NC(=O)CN3C(=O)CCC3=O)cc2)n1	-1	-3
29	COC(=O)CN1C(=O)N(CCc2ccccc2)C2(CCN(Cc3nc4ccccc4n3C)CC2)C1=O	17	4
30	CCCCOC(=O)C1=C(C)NC2=C(C(=O)CCC2)C1c1cccc(OC)c1OC (stereo not given)	-3	-9
31	COc1ccc(Cc2nc3c(c(=O)[nH]2)CN(C(=O)Nc2c(C)cccc2C)CC3)cc1	3	6
32	CC(Sc1nc(CC(=O)O)cs1)C(=O)Nc1cccnc1Cl (stereo not given)	14	14
33	C=C1CC(O)C2C(C)(C)CCC[C@]2(C)[C@H]1CCC(C)=O (stereo not given in full)	5	2
34	O=C1C(=Cc2ccco2)SC(=S)N1c1cccc(C(F)(F)F)c1	2	-2
35	CC(C)C(NC(=O)c1cn(-c2ccc3c(c2)OCCO3)nn1)c1ccc(F)cc1 (stereo not given)	4	1
36	O=c1c2cc(Br)ccc2nc(-c2ccc(F)cc2C(F)(F)F)n1Cc1ccccc1	5	-1
37	CCn1nc(C(C)(C)C)cc1C(=O)N[C@@H](CC(C)C)C(=O)NCC#N	11	4
38	COc1cccc(C2CC(=O)Nc3cc(O)ccc32)c1OCCn1ccnc1 (stereo not given)	-1	-5
39	CN(CC(=O)Nc1ccccc1Br)C(=O)CCc1ncc(-c2ccccc2F)o1	-2	-4
40	O=C(NCCn1nc(-c2cccnc2)ccc1=O)Nc1ccc(F)cc1	9	1
41	CCOC(=O)c1sc2nc(C(C)NC3CCC(C)CC3)[nH]c(=O)c2c1C (stereo not given)	-3	-4
42	COc1ccc(CC(=O)NCc2cc(-c3ccc4c(c3)CC(C)O4)on2)cc1OC (stereo not given)	-1	-3
43	CCOC(=O)c1cn[nH]c1S(=O)(=O)N1CCc2ccccc21	-1	-6
44	CCCCCCNC1CS(=O)(=O)CC1N1CCCC1 (stereo not given)	11	8
45	Cn1c(SCC(=O)N2CCCC(C(N)=O)C2)nnc1-c1ccccc1 (stereo not given)	-1	0
46	c1csc(-c2csc3nc(CN4CCOCC4)nc(Sc4ncn[nH]4)c23)c1	-1	-3
47	O=c1[nH]c(Cc2ccccc2)nc2c1C1(CCCCC1)Cc1ccccc1-2	0	7
48	CCOC(=O)C1CCN(C(c2ccc(OCC)cc2)C2Sc3nc(C)nn3C2=O)CC1 (stereo not given)	0	-1
49	CN(C)C(CNC(=O)NCCS(=O)C(C)(C)C)C1CCCCC1 (stereo not given)	0	0
50	CCC(=O)c1ccc(OCC(=O)NNC(=O)c2cccc(S(=O)(=O)N(C)C)c2)cc1	2	0
51	COC(=O)Cn1ncnc1Sc1nc2c(c(=O)n(C)c(=O)n2C)n1C	-1	8
52	Cn1ccnc1SCCNc1ccc(-c2nccn2C)nn1	4	3
53	S=c1[nH]nc(NC2CCCCC2)s1	22	16
54	CC(C)Cn1nnc2c(=O)oc3ccccc3c21	20	9
55	CCC(=O)Nn1cnc2c(cnn2-c2cccc(Cl)c2)c1=O	3	0
56	O=C(CCCn1nc(-c2cccs2)ccc1=O)Nc1nc2ccccc2s1	4	10
57	CCc1cc(Oc2cccc(C(C)C)c2)nc(SCc2cc(F)ccc2F)n1	-3	5
58	O=C(CN(C1CC1)S(=O)(=O)c1ccccc1)N(CCc1c[nH]c2ccccc12)Cc1ccc(F)cc1	8	21
59	COc1cc(C(=O)NC2CCCC2)cc(Cl)c1OC	-5	-8
60	FC(F)Oc1ccc(-n2c(-c3ccccc3)c[nH]c2=S)cc1	-7	-9

Next results:
cpd	Structure	NPYLR7 agonist	NPYLR7 agonist max-min
61	CSc1nnc(Cn2c(=O)sc3ccccc32)n1C	7	8
62	OCC1(Cc2cccc(Cl)c2)CCCN(Cc2cn[nH]c2C2CCCCC2)C1 (stereo not given)	4	1
63	COc1cccc(OCc2c(-c3ccccc3)nnn2CC(=O)Nc2ccc3c(c2)OCO3)c1	5	1
64	CC(C)Cn1c(=O)c2c(nc3n2CCCN3c2ccc(Cl)cc2)n(C)c1=O	2	8
65	NC1CCN(c2ccccc2C(=O)NCc2cccc(F)c2)CC1	-1	11
66	O=C(Cn1nc2c(c1NC(=O)CC1CCCCC1)CSC2)NCCc1ccccc1	-3	6
67	CCCc1nnc(C(=O)N(C)Cc2n[nH]c3c2CCC3)o1	3	1
68	CC(=O)c1ccc(S(=O)(=O)N2CCN(C3c4ccccc4CCc4ccccc43)CC2)cc1	1	-2
69	Cc1cccc(C2c3[nH]c4ccccc4c3CCN2C(=O)c2cc(C)oc2C)n1 (stereo not given)	15&1	4&0
70	Cc1cccc(C(=O)N2CCN(S(=O)(=O)c3c(C)noc3C)CC2)c1C	13	14
71	Cc1nc2ccc(C(=O)N3CCC(c4cc(C(C)C)n[nH]4)CC3)cc2[nH]1	-2	7
72	COc1cc2c(cc1OC)C(C)N(C(=O)c1cn3c(n1)CNCC3)CC2 (stereo not given)	6	1
73	COc1ccc(S(=O)(=O)Oc2ccccc2CN(Cc2ccco2)C(=O)c2ccco2)cc1	10	-2
74	O=C(OCCN1CCCCC1)c1c[nH]c2ccccc12	-3	-31
75	COc1ccc(CCOc2nc(-c3ccc(C)cc3)n(-c3cccc(NC(=O)c4ccco4)c3)n2)cc1	6	6
76	N#Cc1c(N2CCCCCC2)ncc2cc3ccccc3nc12	5	1
77	CCN1CCN(C(c2ccccc2F)C2Sc3nc(-c4ccco4)nn3C2=O)CC1 (stereo not given)	11	11
78	CC(NC(=O)c1cccc2[nH]ccc12)C(C)(C)C (stereo not given)	0	-2
79	Nc1ccc2oc(-c3csc(Nc4ccc(F)cc4)n3)nc2c1	1	-5
80	CC1CC2CCCCC2N1CC(O)COCC1CCCO1 (stereo not given)	14	10
81	CCC(=O)Nc1ccc(S(=O)(=O)NCCOc2ccc3nnc(C)n3n2)cc1	2	8
82	CC(C)(C)c1cc(Oc2ccc3c(c2)OCO3)nc(SCc2ccccc2Cl)n1	1	4
83	COc1nccnc1-c1c[nH]c2ccc(C)cc12	7	4
84	Cc1cc(Nc2ccc3c(c2)CC(=O)N3)nc(C2CC2)n1	-4	-4
85	CCc1nc2c(sc3cccc(F)c32)c(=O)n1CC(=O)NCc1ccc(Cl)cc1	0	-3
86	CCOc1cc(C2Nc3c(C)cccc3-c3cc(C)nn32)ccc1O (stereo not given)	1	7
87	COc1ccc(CCOc2nc(-c3ccccc3F)n(-c3ccc(NC(=O)Nc4ccc(F)cc4F)cc3)n2)cc1	-2	2
88	CCOC(=O)C1(CCOc2ccccc2)CCN(Cc2ccc(C#CCCO)cc2)CC1	12	15
89	COc1ccc(C(=O)Nc2ccc(-c3cc4ccccc4oc3=O)c(C)c2)cc1[N+](=O)[O-]	-3	9
90	O=C1C2=C(Nc3ccccc3SC2c2ccc(O)cc2)c2ccccc21 (stereo not given)	1	-2
91	COc1ccc(-n2c(C)cc(C[N+](C)(C)C)c2C)cc1	-1	-2
92	CCC(COC)NC(=O)c1cc(N2CCN(Cc3ccccc3)CC2)nc2ccccc12 (stereo not given)	5	4
93	CC(C)N(CC(=O)N(Cc1ccccc1)Cc1cccn1Cc1ccc(F)cc1)C(=O)c1ccc(C(F)(F)F)cc1	-9	-14
94	COc1cc(Cl)cc(/C=N\NC2=NS(=O)(=O)c3ccccc32)c1O	-2	-13
95	CC1CCCCN1CCCOc1ccc2ccccc2c1 (stereo not given)	3	4
96	CCOc1ccc(C(=O)Nc2c(N)nc(SCC(=O)NC(C)C)[nH]c2=O)cc1	3	2
97	COc1ccc(C=Nn2cnc3sc(C)c(-c4ccccc4)c3c2=O)cc1OC	-6	-9
98	Cc1cccc(NC(=O)NCCc2nnc3n2CCC3)c1Cl	-26	-24
99	CCN1C(=S)NC(c2cccc(NC(=O)c3ccccc3Cl)c2)C(C(=O)OCCOC)=C1C (stereo not given)	2	13
100	CC(O)c1cccc(Oc2ncnc3sc(-c4ccccc4)cc23)c1 (stereo not given)	-5	-8
101	CN(CC(N)=O)c1ccc(S(=O)(=O)C(F)(F)F)cc1	1	1
102	CNC(=O)C(C)(C)NC(=O)CC1COc2ccc(C(=O)N(C)C)cc2N1C (stereo not given)	14	6
103	CCCc1cnc2c(c1SCc1ccc(C(=O)OC)cc1)c(=O)n(C)c(=O)n2C	8	6
104	CCc1c(C)nc(-c2cccc(C)c2)nc1N1CCN(C(=O)C(CC)c2ccccc2)CC1 (stereo not given)	5	14
105	Cc1ccc(S(=O)(=O)NC(=O)CN2CCCCCC2=O)c(C)c1	-5	-9
106	CCOC(=O)N1CCC(NC2CCN(c3ccc(CC(=O)NCc4ccccc4)cc3)CC2)CC1	14	7
107	CC(NC(=O)c1cnsn1)c1cccc(Cl)c1 (stereo not given)	0	0
108	Cc1cn2c(nc3c2c(=O)[nH]c(=O)n3C)[nH]1	7	5
109	COc1ccccc1N1CCN(c2ccc(NC(=O)c3cccc(Br)c3)cc2C(=O)NC(C)c2ccccc2)CC1 (stereo not given)	17	13
110	Cc1ccc(NC(=O)CN2c3ccc(S(N)(=O)=O)cc3CC2C)cc1 (stereo not given)	9	6
111	CC(C)(C)C(=O)c1cc2ccccc2nc1N	3	3

Molecules above with two or more sulfur atoms (6):
cpd	Structure	NPYLR7 agonist	NPYLR7 agonist max-min
32	CC(Sc1nc(CC(=O)O)cs1)C(=O)Nc1cccnc1Cl (stereo not given)	14	14
34	O=C1C(=Cc2ccco2)SC(=S)N1c1cccc(C(F)(F)F)c1	2	-2
46	c1csc(-c2csc3nc(CN4CCOCC4)nc(Sc4ncn[nH]4)c23)c1	-1	-3
53	S=c1[nH]nc(NC2CCCCC2)s1	22	16
56	O=C(CCCn1nc(-c2cccs2)ccc1=O)Nc1nc2ccccc2s1	4	10
61	CSc1nnc(Cn2c(=O)sc3ccccc32)n1C	7	8
